# MBD2 DNA inh – inhibitors of MBD2 binding to methylated DNA, primary screen, biochemical, TR-FRET, DNA-binding domain, human. Methyl-CpG-binding domain protein 2 (Homo sapiens), Q9UBB5. MBD2 binding to methylated oligonucleotide. inhibition, % at 4.4 µM. hit rate 0.31% among 370,000. AID 686964, 2013; in the data active = inhibition above about 13%
# TCR-CD3 inh – inhibitors of human TCR-CD3 interaction, primary screen, biochemical, fluorescence, TAMRA-labeled TCR probe; T-cell receptor (TCR); inhibition, % at 9.4 µM; hit rate 0.37% among 360,000; AID 651800, 2012; in the data active = inhibition above about 19%;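 note: recombinant mutant TCR 2C K166C tagged with TAMRA read by polarization; 0% = receptor in buffer alone and 100% = receptor with positive control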
# rCAG binder – binders of r(CAG) RNA repeats, primary screen, biochemical, fluorescence; r(CAG) RNA repeat, TO-PRO-1 dye displacement fluorescence; hit rate 1.3% among 370,000; inhibition, % at 3 µM;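 active = inhibition above the plate cutoff, the mean of all test compounds on that plate plus 3 SD, cut at about 35% in these data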;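 note: 0% = DMSO alone and 100% = 100 µM mitoxantrone as full dye displacement; higher means more dye released from RNA so lower well fluorescence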
# LEDGF integ inh – blockers of LEDGF/p75-dependent integrase strand transfer – biochemical, TR-FRET, high throughput, primary screen; HIV-1 integrase (with human LEDGF/p75); TR-FRET IN-LEDGF/p75 DNA integration, Eu/Cy5; inhibition, % at 3.7 µM; hit rate 0.64% among 370,000; AID 743269, 2014;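 active = inhibition above the screen-wide mean plus 3 SD, cut at about 13% in these data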;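 note: signal is the Cy5 over europium emission ratio at 671 and 618 nm; 0% = plate median of compound wells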
# PRMT1 FP inh – PRMT1 methyltransferase inhibitors, primary screen, biochemical, fluorescence polarization; Protein arginine N-methyltransferase 1 (Homo sapiens), Q99873; recombinant PRMT1, activity-based probe fluorescence polarization; inhibition, % at 2.79 µM; hit rate 1.3% among 370,000;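 active = inhibition above about 21% made by adding two undisclosed values, limit read from the data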
# NPR2 activator – human GC-B receptor activators, primary screen, HEK293 GC-B cells, cGMP TR-FRET, EC30 CNP | activation, % at 10 µM | 0% at EC30 CNP, 100% saturating CNP | hit rate 0.11% among 370,000;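 active = activation at 10 µM reaching about 35% in either raw or pattern-adjusted values, limit read from the data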
# SIAE inh – human SIAE inhibitors, primary screen, biochemical, fluorescence polarization, FP-Rh probe, 1536-well HTS. SIAE FP-Rh probe binding. inhibition, % at 9.66 µM. Sialate O-acetylesterase (Homo sapiens), Q9HAT2. hit rate 0.69% among 370,000;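 active = inhibition above a cutoff: mean of compounds within the control limits plus 3 SD of those, cut at about 17% in these data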;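 note: 0% = plate median of compound wells and 100% = probe without SIAE protein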
# Target sequence (Q9HAT2 whole entry, looked up): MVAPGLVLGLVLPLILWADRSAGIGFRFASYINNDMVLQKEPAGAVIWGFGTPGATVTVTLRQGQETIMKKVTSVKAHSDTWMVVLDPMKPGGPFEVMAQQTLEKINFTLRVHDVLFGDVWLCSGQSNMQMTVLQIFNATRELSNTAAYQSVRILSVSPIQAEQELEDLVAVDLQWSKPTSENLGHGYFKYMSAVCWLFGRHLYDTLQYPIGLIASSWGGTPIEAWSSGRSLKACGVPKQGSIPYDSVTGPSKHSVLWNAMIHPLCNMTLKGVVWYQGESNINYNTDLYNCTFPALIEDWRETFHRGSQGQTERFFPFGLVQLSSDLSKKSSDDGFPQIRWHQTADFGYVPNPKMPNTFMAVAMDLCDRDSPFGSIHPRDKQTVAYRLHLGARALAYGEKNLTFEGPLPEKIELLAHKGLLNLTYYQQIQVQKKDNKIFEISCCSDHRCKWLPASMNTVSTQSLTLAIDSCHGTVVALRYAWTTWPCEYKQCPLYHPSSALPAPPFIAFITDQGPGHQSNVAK
# mABHD4 FP – ABHD4 inhibitors, primary screen, biochemical, fluorescence polarization, mouse; (Lyso)-N-acylphosphatidylethanolamine lipase (Mus musculus), Q8VD66; purified mABHD4, FP-Rh probe fluorescence polarization; inhibition, % at 8.92 µM; hit rate 0.54% among 370,000; AID 720543, 2013;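 active = inhibition exceeding the mean over every tested compound plus 3 SD, cut at about 30% in these data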;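 note: 0% = plate median of compound wells and 100% = S159A mutant with DMSO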
#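 Assay system: Wild-type mouse ABHD4 protein | Medium: HEPES pH 7.0 buffer, 150 mM NaCl, 0.01% Pluronic F-127 | Incubation: Enzyme–compound pre-incubation 45 min, then probe 60 min, both 25 °C | Technique: Fluorescence polarization with parallel and perpendicular emission, 525/598 nm | Evaluation: % inhibition of FP-Rh probe binding versus controls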
# TDP2 inh – human TDP2 enzyme inhibitors, primary screen, biochemical, epi absorbance, recombinant enzyme; Tyrosyl-DNA phosphodiesterase 2 (Homo sapiens), O95551; hit rate 0.34% among 370,000; inhibition, % at 12.8 µM; T5PNP hydrolysis, p-nitrophenol absorbance 415 nm;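 active = inhibition above the mean of all tested compounds plus 3 SD, set per campaign, cut at about 25% in these data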;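 note: 0% = DMSO with enzyme and 100% = buffer with substrate but no TDP2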
# Target sequence (O95551 whole entry, looked up): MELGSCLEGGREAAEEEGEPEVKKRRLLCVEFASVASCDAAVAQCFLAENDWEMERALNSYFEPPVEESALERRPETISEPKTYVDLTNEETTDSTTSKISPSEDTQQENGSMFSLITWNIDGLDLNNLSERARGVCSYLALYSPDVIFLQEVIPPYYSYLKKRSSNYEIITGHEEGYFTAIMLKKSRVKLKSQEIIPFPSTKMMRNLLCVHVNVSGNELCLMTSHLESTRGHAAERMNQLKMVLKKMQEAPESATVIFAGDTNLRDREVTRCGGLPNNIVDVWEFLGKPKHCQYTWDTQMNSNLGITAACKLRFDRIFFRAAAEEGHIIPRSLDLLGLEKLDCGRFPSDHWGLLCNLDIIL
#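 System – recombinant human TDP2 · Quantity – TDP2 enzyme at 120 nM final · Doses – single concentration, 12.8 µM nominal, with 1% DMSO · Incubation – 2 h at 37 °C · Measured by – epi absorbance of p-nitrophenol freed from T5PNP by hydrolysis · Read-out – % inhibition relative to enzyme-containing and enzyme-free wells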
# * marks the source's active call; other numbers are inactive results; / = no result given.
SMILES,MBD2 DNA inh,TCR-CD3 inh,rCAG binder,LEDGF integ inh,PRMT1 FP inh,NPR2 activator,SIAE inh,mABHD4 FP,TDP2 inh
Cc1cccc(C)c1NC(=O)Cn1nc(-c2ccccc2)nc1-c1ccccc1,-1,0,0,-3,-4,-2,5,2,4
CC1=CC(C)(C)N(C(=O)CSc2nnc(N)s2)c2cc(C)c(C)cc21,2,-6,-5,-2,1,-2,2,1,-4
O=C(NC1CC1)c1ccc2c3c(cccc13)CC2,1,-1,-3,0,-2,2,1,-16,-11
O=C(Nc1ccnn1C1CCN(Cc2c[nH]c3ccccc23)CC1)c1ccccc1,0,-6,0,1,-2,-5,-5,-2,-3
COc1ccccc1CCNC(=O)C1CCN(C(=O)/C=C/c2ccccc2)CC1,-1,-1,-7,3,-4,1,5,4,5
CCOC(=O)[C@@H](C)N(C(=O)OC(C)(C)C)S(=O)(=O)N(Cc1ccccc1)[C@H](C(=O)OC)C(C)C,-8,2,-4,-1,0,-5,8,-7,-4
CCOC(=O)/C(=N/O)C1=NC(C)(C)Cc2cc(C)c(C)cc21,-2,-4,-7,2,-1,0,-3,2,-1
CS(=O)(=O)c1ccc(C(=O)NNC(=O)c2ccccc2-n2cccc2)cc1,-1,7,-1,4,-1,1,11,8,-9
COc1ccc(C2C=C(c3ccc(Br)cc3)Nc3nc(N4C(=O)CCC4=O)nn32)cc1 (stereo unspecified),4,7,-2,1,6,1,10,1,0
c1ccc2[nH]c(NC3=NCCC3)nc2c1,-4,7,1,-1,1,-2,1,9,2
CC(C)=CCCC(C)CN1CCC(n2nccc2NC(=O)c2ccccc2)CC1 (stereo unspecified),6,3,-11,0,-1,-5,4,4,-6
CCOC(=O)c1c(N)nn(C(=O)c2ccccc2F)c1-c1ccc(OC)cc1,0,4,-2,2,2,0,-2,-4,13
Cc1sc2ncn(CC(=O)NCCCC(=O)N3CCN(c4ncccn4)CC3)c(=O)c2c1C,2,-1,-8,2,-2,7,2,-2,5
O=C(NCCc1c[nH]c2ccccc12)/C(=C\c1cccnc1)NC(=O)c1ccco1,-3,9,1,2,-2,1,-2,3,11
CCN(CC)C(=O)c1[nH]cnc1C(=O)N[C@@H](C)C(=O)OC(C)(C)C,6,7,-7,-1,-1,-3,-2,0,4
COc1ccccc1CC(=O)Nc1ccc(-c2noc(COc3ccc(Cl)c(C)c3)n2)cc1,2,2,2,3,-3,0,-4,-1,-10
O=Cc1ccc(OCC(=O)NC(=O)NC2CCCCC2)cc1,5,-4,0,0,-1,-1,5,4,3
CC1CCCN(C(=O)CNC(=O)c2ccco2)C1 (stereo unspecified),0,7,-1,0,0,-1,6,2,16
CC1=C(C)CC(C(=O)NC2CCN(C(C)C)CC2)C(C(=O)O)C1 (stereo unspecified),-5,7,0,-2,1,-8,11,-3,5
COc1ccccc1NC(=O)CSC1CC(=O)N(c2ccc3c(c2)OCO3)C1=O (stereo unspecified),1,-2,1,1,44*,-1,-3,10,9
CCC(C)NC(=O)c1ccccc1NC(=O)/C(=C/c1ccc(OC)cc1)c1ccccc1 (stereo unspecified),11,0,-3,-5,3,6,-3,-16,-9
CCC1=NN(C(=O)c2ccc([N+](=O)[O-])cc2)C(O)(c2ccccc2)C1 (stereo unspecified),-3,7,11,8,-2,3,6,5,-13
CC1=C(C(=O)Nc2ccccn2)C(c2cccnc2)n2nnnc2N1 (stereo unspecified),-1,5,1,3,-2,3,-5,3,-4
COc1ccc2c(c1)OC1=C(C(=O)CCC1)C2C1=C(O)CCCC1=O (stereo unspecified),-1,-4,7,0,0,-2,-1,5,6
O=C(NNC(=O)c1ccccc1-n1cccc1)c1ccc(Cl)c(Cl)c1,3,4,1,-4,0,4,2,2,0

# Further structures
SMILES,MBD2 DNA inh,TCR-CD3 inh,rCAG binder,LEDGF integ inh,PRMT1 FP inh,NPR2 activator,SIAE inh,mABHD4 FP,TDP2 inh
COc1ccc(CSc2nc(N3CCOCC3)c3c(c2C#N)CC(C)(C)OC3)cc1,2,1,5,-1,-3,48*,-6,-10,1
COc1ccccc1C(=O)NNC(=O)c1cccc(C)c1,-4,12,2,0,0,5,-1,-1,4
CC(C)N(C(=O)c1ccc2nc(-c3ccccc3)c(-c3ccccc3)nc2c1)C(C)C,-1,-5,3,-7,-1,2,4,28,6
Cc1nn(Cc2c(F)cccc2Cl)c(C)c1NC(=O)C1CC1,1,-1,-3,-4,0,-2,1,4,6
COC(=O)c1c(CCl)noc1C(=O)NC(C)C,-5,5,-1,2,3,2,2,5,8
COCCNC(=O)c1onc(CCl)c1C(=O)OC,1,1,1,-1,2,3,5,1,1
CCn1c(SCC(=O)Nc2ccc(Cl)cc2)nnc1C1CC1,1,2,-4,1,0,-4,-1,3,8
CCOC(=O)c1c(C)[nH]c(C)c1C(=O)COC(=O)Cc1n[nH]c(=O)c2ccccc12,0,4,4,2,2,0,-2,2,7
CC(=O)Oc1ccc(C(=O)Nc2cc(C)ccc2NC(=O)COc2ccccc2)cc1,/,/,/,/,/,-2,/,/,/
COc1ccc(C2c3c(-c4cc(Cl)c(C)cc4O)n[nH]c3C(=O)N2Cc2cccnc2)cc1OC (stereo unspecified),-2,3,19,1,2,-25,16,6,1
CCC(C)NC(=O)c1ccccc1NC(=O)COc1ccc(OC)cc1 (stereo unspecified),-3,1,0,0,0,-3,1,-7,-5
CCCCN(CC)CCNC(=O)c1cc2c(-c3ccccc3F)nn(C)c2s1,1,-5,3,-4,1,-12,-3,6,-7
CCOC(=O)C1CCN(C(=O)c2ccc3c(c2)NC(=O)/C(=C/c2ccccc2)S3)CC1,-2,11,2,-3,-3,-3,-4,-5,9
COC(=O)C1=NN(c2ccccc2OC)C2C(=O)N(c3ccccc3OC)C(=O)C12 (stereo unspecified),-2,-5,0,5,-3,-9,-4,-8,-7
Cc1ccc(S(=O)(=O)CC(=O)Nc2ncc([N+](=O)[O-])s2)cc1,3,-2,9,3,-3,-4,7,-2,4
COc1ccc(C(=O)NN/C=C/C(=O)c2ccc(Br)cc2)cc1,1,4,11,-3,2,7,3,1,2
O=C(NCCCn1ccnc1)/C(=C/c1cccnc1)NC(=O)c1ccco1,-3,8,0,3,1,3,-1,-6,-6
COc1ccc(-c2nnc(SCc3nnc(-c4ccccc4)o3)n2C)cc1OC,3,4,-8,-2,-4,-9,-4,-1,12
O=C(O)CN1C(=O)SC(Nc2ccc(C(=O)O)cc2)C1=O (stereo unspecified),6,-5,5,-3,0,0,-5,-11,-4
Cc1cc2nc(CN(C)Cc3c(C(=O)N(C)C)nc4ccc(Cl)cn34)[nH]c2cc1C,-2,3,-5,-2,-5,2,9,-4,6
Cc1cccc2cc(CN(Cc3ccco3)C(=O)c3ccncc3)c(=O)[nH]c12,4,-9,2,1,9,6,10,-12,-4
CCN(Cc1nc2ccccc2c(=O)[nH]1)C(=O)c1cc(C2CC2)nn1-c1ccccc1,3,0,0,2,-4,-12,-6,0,5
O=C(NCCc1c[nH]c2ccccc12)/C(=C/c1cccnc1)NC(=O)c1cccs1,2,6,0,2,-3,-1,0,1,4
COc1ccc(OC)c2c(C)cc(N3CCCCCC3)nc12,1,-1,-6,-2,7,-4,5,8,3
CCCOC(=O)Oc1ccc2c(=O)c(Oc3cc(C)cc(C)c3)coc2c1,1,0,-4,1,-2,4,-3,-9,0

# Random excerpt: 7 entries already listed
SMILES,MBD2 DNA inh,TCR-CD3 inh,rCAG binder,LEDGF integ inh,PRMT1 FP inh,NPR2 activator,SIAE inh,mABHD4 FP,TDP2 inh
CC1=C(C(=O)Nc2ccccn2)C(c2cccnc2)n2nnnc2N1 (stereo unspecified),-1,5,1,3,-2,3,-5,3,-4
CCN(Cc1nc2ccccc2c(=O)[nH]1)C(=O)c1cc(C2CC2)nn1-c1ccccc1,3,0,0,2,-4,-12,-6,0,5
CCCCN(CC)CCNC(=O)c1cc2c(-c3ccccc3F)nn(C)c2s1,1,-5,3,-4,1,-12,-3,6,-7
O=C(NCCc1c[nH]c2ccccc12)/C(=C/c1cccnc1)NC(=O)c1cccs1,2,6,0,2,-3,-1,0,1,4
c1ccc2[nH]c(NC3=NCCC3)nc2c1,-4,7,1,-1,1,-2,1,9,2
CCOC(=O)C1CCN(C(=O)c2ccc3c(c2)NC(=O)/C(=C/c2ccccc2)S3)CC1,-2,11,2,-3,-3,-3,-4,-5,9
Cc1cccc(C)c1NC(=O)Cn1nc(-c2ccccc2)nc1-c1ccccc1,-1,0,0,-3,-4,-2,5,2,4

# In a second layout: entries from further up
smiles	MBD2 DNA inh	TCR-CD3 inh	rCAG binder	LEDGF integ inh	PRMT1 FP inh	NPR2 activator	SIAE inh	mABHD4 FP	TDP2 inh
CC(=O)Oc1ccc(C(=O)Nc2cc(C)ccc2NC(=O)COc2ccccc2)cc1	/	/	/	/	/	-2	/	/	/
CCN(CC)C(=O)c1[nH]cnc1C(=O)N[C@@H](C)C(=O)OC(C)(C)C	6	7	-7	-1	-1	-3	-2	0	4

# Going on with the list.
SMILES,MBD2 DNA inh,TCR-CD3 inh,rCAG binder,LEDGF integ inh,PRMT1 FP inh,NPR2 activator,SIAE inh,mABHD4 FP,TDP2 inh
CCCCCc1ccc(CC(=O)N2CCOCC2)cc1,0,1,-7,4,6,-1,1,-16,-8
CC(C)(C)NC(=O)NC(=O)COc1ccccn1,7,-7,-4,3,2,7,3,17,6
N#Cc1c(NC(=O)CN2CCCCC2)sc2c1CCC2,-5,-5,-2,5,1,-6,9,7,3
Cc1ccc(Sc2ccc(/C=N/O)cc2[N+](=O)[O-])cc1,5,-5,6,-1,6,9,-15,-69,-12
CC(C)C[C@H](NC(=O)c1nc[nH]c1C(=O)NC1CCNCC1)C(=O)OCc1ccccc1,6,1,13,-1,5,-3,-5,4,-11
C=CCn1c(=O)c2ccccc2n2c(Sc3nnnn3-c3ccccc3)nnc12,-1,3,0,1,1,0,0,1,10
Cc1ccc(C(CNS(=O)(=O)c2ccc(F)cc2C)N2CCN(C)CC2)cc1 (stereo unspecified),0,-3,-5,4,-3,-3,3,2,-13
Cc1cccc(NC(=O)c2nc[nH]c2C(=O)N[C@@H](C)C(=O)OC(C)(C)C)c1,2,5,-2,-1,0,-4,-9,-8,3
CC(C)[C@H](NC(=O)c1ccccc1)C(=O)OCC(=O)c1ccc2c(c1)NC(=O)CO2,-2,5,1,4,-3,-3,-2,2,10
CCCCC1=CC2=CC(=O)C(C)(OC(=O)CC)C(=O)C2=CN1CCc1ccc(Br)cc1 (stereo unspecified),-1,9,4,-1,2,1,-3,25,-13
CCOC(=O)C1=NN(C(=O)c2ccc(OC)cc2)C(O)(c2ccc(Cl)cc2)C1 (stereo unspecified),-1,3,9,5,-2,6,7,8,7
CCn1c(SCC(N)=O)nc2sc3c(c2c1=O)CCCC3,4,-1,1,-1,1,-10,0,0,2
C=CCN1C=C2C(=O)C(C)(OC(=O)CC)C(=O)C=C2C=C1CCCC (stereo unspecified),1,-1,2,4,9,-6,2,6,12

# Assay outcomes as filed in PubChem.

# These rows are one share of the data; count on the stated rates, not on these rows.
